From PubChem BioAssay
PKD1 inh = inhibitors of human PKD1 kinase, biochemical, fluorescence polarization. inhibition, %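 (about 10 µM by stock and volumes)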. 0.056% of 200,000 active. PKD1 kinase fluorescence polarization assay;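 active = inhibition of 50% or more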;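 also: controls were vehicle for no effect and a reference inhibitor for full effect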
Target sequence (Q15139 whole entry, looked up): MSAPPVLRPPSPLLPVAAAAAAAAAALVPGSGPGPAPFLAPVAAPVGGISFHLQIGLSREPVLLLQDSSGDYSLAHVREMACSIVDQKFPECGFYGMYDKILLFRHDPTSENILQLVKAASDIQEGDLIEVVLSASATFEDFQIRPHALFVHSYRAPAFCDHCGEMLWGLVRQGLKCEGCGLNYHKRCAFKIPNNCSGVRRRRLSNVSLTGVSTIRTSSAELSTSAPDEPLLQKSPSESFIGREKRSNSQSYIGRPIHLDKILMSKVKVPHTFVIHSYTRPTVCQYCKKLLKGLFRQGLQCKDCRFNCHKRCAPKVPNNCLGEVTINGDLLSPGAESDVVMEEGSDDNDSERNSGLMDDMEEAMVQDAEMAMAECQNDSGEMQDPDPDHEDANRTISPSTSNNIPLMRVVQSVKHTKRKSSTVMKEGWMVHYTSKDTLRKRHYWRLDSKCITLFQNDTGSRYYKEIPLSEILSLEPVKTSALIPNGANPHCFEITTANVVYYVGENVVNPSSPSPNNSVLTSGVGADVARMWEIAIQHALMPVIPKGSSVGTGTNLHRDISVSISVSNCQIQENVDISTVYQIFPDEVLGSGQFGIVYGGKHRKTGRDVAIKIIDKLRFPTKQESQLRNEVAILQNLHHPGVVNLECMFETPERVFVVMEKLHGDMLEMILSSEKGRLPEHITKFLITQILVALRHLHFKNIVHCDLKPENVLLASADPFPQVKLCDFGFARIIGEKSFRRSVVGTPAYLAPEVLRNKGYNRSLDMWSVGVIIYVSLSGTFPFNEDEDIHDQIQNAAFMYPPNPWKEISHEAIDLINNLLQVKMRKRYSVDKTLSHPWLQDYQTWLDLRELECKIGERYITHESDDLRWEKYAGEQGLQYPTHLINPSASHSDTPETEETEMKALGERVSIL
Insulin prom inh = inhibitors of insulin promoter-driven GFP, primary screen, imaging, TRM-6 cells (human fetal islet line), eGFP reporter, cell count | reporter expression induced with tamoxifen | inhibition, % at 2 µM | 0.9% of 130,000 active;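 active = inhibition above the mean plus 3 SD, with well images judged a real hit on visual review, cut at about 60% in these data, passing the limit was not always enough; inconclusive = inhibition over the cutoff but images rejected on review; inactive = inhibition not above the cutoff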
RGS16-Gao = modulators of RGS16 binding to Galphao, primary screen, biochemical, human proteins, multiplexed bead flow cytometry | Regulator of G-protein signaling 16 (Homo sapiens) + Guanine nucleotide-binding protein … | bead-based flow cytometry RGS16-Galphao binding, fluorescence; actives lie on both sides | 0.38% of 220,000 active | binding response (% of control), % at 10 µM;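 active = below 25% or above 175%, edge rows of some plates excepted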;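 also: Galphao activated by GDP with aluminum fluoride before binding; 100% = wells without compound and 0% = beads without RGS; some results beyond the cut were filed as inactive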
HSV replic up = enhancers of HSV replication in host cells, fold increase, host cell viability | 0.005% of 220,000 active | maximum fold increase | HSV replication augmentation in cells;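 active = peak rise of 1.5-fold or more in the series; inconclusive = self-fluorescent or not available for retest; tested in PC3 cells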;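 also: first round at 10 µM; read as green reporter fluorescence; hits show the peak of a series up to 25 µM; 1 = signal of infected wells without compound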
GALR2 agonist = GALR2 receptor agonists, primary screen, cell-based; 0.48% of 140,000 active; GALR2-expressing cells, agonist activation read-out; activation, %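 (tested at 5 µM)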; AID 803, 2007; Galanin receptor type 2 (Homo sapiens), O43603;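 active = above mean plus 3 SD of all compounds, about 5% in these data, not always enough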;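 also: 0% = vehicle buffer wells and 100% = reference agonist at full effect; tested in CHO reporter cells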
Insulin prom inh cell count = recorded beside Insulin prom inh, whose call it bears; normalized cell count, %; measured here: cell count, toxicity; reference of the scale not given here;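 cells exposed to compound for 48 h; stained nuclei by imaging scaled within each plate; lower means fewer cells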
HSV replic up primary fold = further read-out of HSV replic up, marked with its call; fold increase; compound at 10 µM; measured here: primary screen fold increase 10 uM; tested in PC3 cells;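 GFP signal in the first replicate; 1 = infected wells without compound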
* hit, by the source's call; i = inactive; ? = inconclusive; . = no result given; & = joins results of further samples.

Start of the data: the first 2 compounds as a preview:
| compound | RGS16-Gao | GALR2 agonist | HSV replic up primary fold | PKD1 inh | Insulin prom inh | HSV replic up | Insulin prom inh cell count |
| --- | --- | --- | --- | --- | --- | --- | --- |
| O=C(COC(=O)c1ccccc1O)NCCCc1ccccc1 | 96 | . | 0.9 | -1 | . | i | . |
| C=C(C)Cn1c(N2CCCC2)nc2c1c(=O)[nH]c(=O)n2C | 118 | -1.4 | 0.82 | -2 | . | i | . |

The listing, from the first entry:
| compound | RGS16-Gao | GALR2 agonist | HSV replic up primary fold | PKD1 inh | Insulin prom inh | HSV replic up | Insulin prom inh cell count |
| --- | --- | --- | --- | --- | --- | --- | --- |
| O=C(COC(=O)c1ccccc1O)NCCCc1ccccc1 | 96 | . | 0.9 | -1 | . | i | . |
| C=C(C)Cn1c(N2CCCC2)nc2c1c(=O)[nH]c(=O)n2C | 118 | -1.4 | 0.82 | -2 | . | i | . |
| CC(=O)Nc1cc(C(=O)N2CCCC2)ccc1S(=O)(=O)c1ccc(C)cc1 | 112 | -1.0 | 0.97 | 1 | 23 | i | 74 |
| C=C(C)C1CC=C(C)/C(=N/NC(=O)c2ccc(NC(=O)CCC)cc2)C1 (centres undefined) | 103 | -0.6 | 1 | -1 | 83* | i | 106* |
| CSc1nc(C)c(C(=O)C[n+]2ccccc2C)cc1C#N | 105 | . | 0.95 | . | . | i | . |
| CCOC(=O)c1sc(NC(=S)NC(=O)C23CC4CC(CC(C4)C2)C3)cc1C | 102 | -0.9 | 1 | -4 | . | i | . |
| COC1=C(OC)c2ccccc2C(C(=O)O)N/C1=C(/C)Nc1ccncc1 (centres undefined) | 102 | -2.9 | 0.96 | -16 | 4 | i | 102 |
| COc1ccc2c(c1)CCc1sc(NC(=O)c3ccc(C)cc3)nc1-2 | 100 | -0.7 | . | -2 | 18 | ? | 130 |
| Cn1c(N)c(C(=O)COC(=O)/C=C/c2ccc(OC(F)F)cc2)c(=O)n(C)c1=O | 102 | . | 0.83 | 7 | . | i | . |
| O=C1NC(=Nc2ccc3ccccc3c2)S/C1=C/c1ccco1 | 100 | . | 1.2 | -2 | . | i | . |
| O=C(NCc1ccccn1)C1CC(c2ccc(Cl)c(Cl)c2)=NO1 (centres undefined) | 98 | -0.5 | 0.99 | 8 | 13 | i | 99 |
| O=C(NS(=O)(=O)c1ccc(NC(=O)C2CCCO2)cc1)c1ccccc1 (centres undefined) | 98 | 1.1 | 0.92 | -7 | 67 | i | 82 |
| CCOc1ccc(C(C)=O)cc1N1C(=O)C2C3C=CC(O3)C2C1=O (centres undefined) | 102 | -3.7 | 0.97 | -12 | 9 | i | 55 |
| O=[N+]([O-])c1cc(C(F)(F)F)cc([N+](=O)[O-])c1N1CCN(S(=O)(=O)c2ccccc2)CC1 | 97 | -0.5 | 0.88 | 4 | -33 | i | 126 |
| CC(C)C(=O)NCCc1c[nH]c2ccccc12 | 104 | -1.6 | 0.98 | -3 | 37 | i | 89 |
| O=C1/C(=C\c2ccc([N+](=O)[O-])cc2)CCc2ccccc21 | 108 | 0.3 | 0.91 | 2 | 33 | i | 99 |
| CC(=O)c1c(C)[nH]c(C(=O)CSc2nnc(C3CCCCC3)n2N)c1C | 97 | 0.8 | 0.99 | -2 | -82 | i | 103 |
| Cc1ccc(C(=O)CSc2nnc(-c3ccc4[nH]c(C)c(C)c4c3)o2)cc1C | 100 | -0.9 | 1.2 | -11 | 41 | i | 146 |
| CC(=O)c1cccc(NC(=O)N2CCCC2C(=O)Nc2cccc(C)c2C)c1 (centres undefined) | 105 | -2.5 | 1.1 | -6 | . | i | . |
| O=S(Cc1ccc(Br)cc1)Cc1nnc(SCc2ccc(Br)cc2)n1-c1ccccc1 (centres undefined) | 104 | -3.2 | 1 | -14 | -61 | i | 48 |

Other records follow:
| compound | RGS16-Gao | GALR2 agonist | HSV replic up primary fold | PKD1 inh | Insulin prom inh | HSV replic up | Insulin prom inh cell count |
| --- | --- | --- | --- | --- | --- | --- | --- |
| CCc1nn(CC(=O)NCCCN2CCCC2=O)c(=O)c2cc3sccc3n12 | 192 | -0.8 | 1.4 | -10 | 40 | i | 82 |
| CCOC(=O)Cc1ccc(NC(=O)c2ccc(C(C)(C)C)cc2)cc1 | 104 | -1.3 | 0.9 | -7 | -22 | i | 136 |
| CC(=O)Nc1ccc(S(=O)(=O)N(C)CC(=O)OCC(=O)c2cc(C)n(-c3ccc4c(c3)OCO4)c2C)cc1 | 103 | -0.4 | 0.86 | 14 | -3 | i | 118 |
| O=C(Cc1cccs1)N(Cc1cccs1)C1(C(=O)NC2CCCC2)CCCCC1 | 66 | -2.3 | 1.2 | -11 | -36 | i | 116 |
| COc1ccc(C/C(N)=N/OC(=O)Cc2ccccc2)cc1 | 104 | -1.1 | 1 | -11 | 22 | i | 98 |
| Cc1c(/C=N\NC(=O)c2ccc(F)cc2)cnn1C | 104 | -0.5 | 0.93 | 3 | -13 | i | 141 |
| COC(=O)/C=C1/SC(=NC(=O)c2ccccc2)NC1=O | 106 | -1.3 | 0.93 | 5 | . | i | . |
| CCn1c(O)c(N=N)c2ccccc21 | 100 | . | 0.97 | 4 | . | i | . |
| Cc1ccc(N2C(=O)C3N=NN(CC(=O)N4N=C(c5ccccc5)CC4c4ccccc4)C3C2=O)cc1 (centres undefined) | 97 | . | 0.84 | 4 | -83 | i | 162 |
| COc1ccc(NC(=O)c2cc(C)nc3ccccc23)cc1S(=O)(=O)Nc1ccccc1Cl | 99 | -2.2 | 0.86 | -4 | -28 | i | 133 |
| COc1ccc(/C=C/C2=Nc3ccccc3NC(C)(C)C2)cc1OC | 93 | . | 0.93 | . | . | i | . |
| CCCC(=O)Nc1ccc(S(=O)(=O)N2CCOCC2)cc1 | 81 | -0.6 | 0.88 | 2 | 71 | i | 87 |
| CCn1cc(CNC(=O)c2cccc([N+](=O)[O-])c2)c(C)n1 | 139 | -0.3 | 1 | 2 | . | i | . |
| COCCCN1C(=O)C(O)=C(C(=O)c2ccco2)C1c1cccc(Br)c1 (centres undefined) | 122 | -1.2 | . | -5 | . | . | . |
| COC(=O)Nc1ncc(CN2C(=O)c3ccccc3C2=O)s1 | 100 | -1.2 | 1.1 | -1 | 7 | i | 118 |
| COc1ccc(N(C(=O)c2ccc(Cl)cc2)C2=CC3CCC(C2)N3C)cc1 (centres undefined) | 98 | -2.2 | 0.98 | -5 | -35 | i | 106 |
| CSc1nc(C)c(CCOCc2ccc(F)cc2)c(=O)[nH]1 | 101 | . | 0.98 | 0 | -6 | i | 80 |
| NS(=O)(=O)c1ccc(N2C(=O)C(=O)/C(=C(/O)c3ccccc3)C2c2ccc(Cl)cc2)cc1 (centres undefined) | 79 | . | 1.1 | . | . | i | . |
| CC1CCCCC1NC(=O)c1ccc(S(=O)(=O)NCc2ccco2)cc1 (centres undefined) | 95 | -2.4 | 0.81 | -5 | 23 | i | 127 |
| C=CCn1c(P(C)(=O)O)nc2ccccc21 | 104&96 | -0.2 | 1.1&0.97 | -3&-2 | 20 | i | 96 |

The list goes on:
| compound | RGS16-Gao | GALR2 agonist | HSV replic up primary fold | PKD1 inh | Insulin prom inh | HSV replic up | Insulin prom inh cell count |
| --- | --- | --- | --- | --- | --- | --- | --- |
| CC(C)CN1C2CCCC1CC(NC(=S)NCc1ccco1)C2 (centres undefined) | 97 | . | 1 | -6 | . | i | . |
| CCCc1nnc(NC(=O)CCC(=O)NCc2ccccc2OC)s1 | 101 | -1.7 | 0.8 | -6 | -9 | i | 97 |
| CC(NC(=O)Cc1ccc([N+](=O)[O-])cc1)c1ccc2c(c1)OCO2 (centres undefined) | 110 | . | 0.87 | . | . | i | . |
| CN(CC(=O)Nc1ccc(F)cc1)c1ccc(S(=O)(=O)N2CCCCC2)cc1[N+](=O)[O-] | 111 | -0.2 | 0.95 | 1 | -30 | i | 113 |
| CCc1ccc(CN(C)Cc2nc(-c3cccc(Cl)c3)no2)nc1 | 103 | . | 0.99 | 0 | . | i | . |
| O=S(=O)(Nc1nc2ccccc2nc1Nc1ccc2c(c1)OCO2)c1ccccc1 | 98 | -1.0 | 1.1 | -2 | . | i | . |
| Cc1ccc2nc(NCCO)nc(-c3ccccc3)c2c1 | 108 | 2.1 | . | -25 | -44 | . | 68 |
| Cc1c(NC(=O)CCC2CCCCC2)cc(C(=O)N2CCOCC2)cc1[N+](=O)[O-] | 95 | . | 0.84 | 3 | . | i | . |
| O=C1C(=O)N(CC2CCCO2)C(c2ccco2)/C1=C(/O)c1ccc(F)cc1 (centres undefined) | 103 | . | 1 | 3 | 31 | i | 127 |
| O=C(OCN1C(=O)c2ccccc2C1=O)c1ccc2c(=O)n3c(nc2c1)CCC3 | . | -0.6 | . | 1 | -9 | . | 119 |
| CC(C)N=C1SC(CC(=O)Nc2ccccc2)C(=O)N1C(C)C (centres undefined) | 102 | . | 1 | -5 | . | i | . |
| O=C(CCC1CCCN(C(=O)c2ccc3c(c2)OCO3)C1)NCc1ccc(F)c(F)c1 (centres undefined) | 112 | . | 0.91 | -2 | -30 | i | 129 |
| Cc1cccc(OCC(=O)N(Cc2cccs2)C2CCS(=O)(=O)C2)c1 (centres undefined) | 104 | -0.3 | 1 | -9 | . | i | . |
| COc1ccc(C(=O)CSc2nnc(-c3ccoc3C)n2CC2CCCO2)cc1 (centres undefined) | 102 | -2.0 | 0.84 | 8 | . | i | . |
| Nc1nnnn1CC(=O)OCc1cccc(Br)c1 | 100 | -2.6 | 1.3 | -11 | -22 | i | 53 |
| Cc1ccc(NC(=O)Cc2ccc3c(c2)OCCO3)cc1S(=O)(=O)N1CCCCC1 | 100 | . | 1.1 | . | . | i | . |
| O=C(Nc1cc2c(oc1=O)CCCC2=O)c1ccccc1 | 106 | -1.1 | 0.82 | 7 | -33 | i | 60 |
| O=C(O)CCCNC(=O)c1ccc(NC(=O)Cc2ccc(Cl)cc2)cc1 | 105 | . | 0.89 | -6 | . | i | . |
| O=C1CC(c2ccco2)CC(O)=C1C=Nc1ccc(Br)cc1 (centres undefined) | 101 | -1.7 | 0.99 | 1 | -14 | i | 109 |
| CC(=O)CSc1nc2ccccc2s1 | 100 | -2.8 | 0.88 | -4 | 51 | i | 79 |
| O=C(O)CCNS(=O)(=O)c1ccc2c(c1)CCCC2 | 103 | . | 0.81 | -1 | . | i | . |

Single records (already shown). Order of values: RGS16-Gao	GALR2 agonist	HSV replic up primary fold	PKD1 inh	Insulin prom inh	HSV replic up	Insulin prom inh cell count
CCCc1nnc(NC(=O)CCC(=O)NCc2ccccc2OC)s1 in the list: 101	-1.7	0.8	-6	-9	i	97
O=C(OCN1C(=O)c2ccccc2C1=O)c1ccc2c(=O)n3c(nc2c1)CCC3 in the list: .	-0.6	.	1	-9	.	119
COc1ccc(C(=O)CSc2nnc(-c3ccoc3C)n2CC2CCCO2)cc1 (centres undefined) in the list: 102	-2.0	0.84	8	.	i	.
CN(CC(=O)Nc1ccc(F)cc1)c1ccc(S(=O)(=O)N2CCCCC2)cc1[N+](=O)[O-] in the list: 111	-0.2	0.95	1	-30	i	113
Cc1ccc2nc(NCCO)nc(-c3ccccc3)c2c1 in the list: 108	2.1	.	-25	-44	.	68
